2A StopGo: lowers the luciferase signal of an FMDV 2A StopGo reporter | AID 1159524 | 410,000 compounds, 1.2% hits | human cells with a luciferase reporter of 2A StopGo recoding; control for the full effect not named in the record | Potency, µM (highest dose often 57.9 µM), for the others: top-dose signal change, negative = less light; active = well fitted falling curve with a large enough effect; inconclusive = small, poorly fitted or top-dose-only effect; inactive = no such curve, though single readings can be large or run the other way; tested in HEK293T cells; also: % is scaled to controls: 0 for no effect and ±100 for the full control effect; nearly all actives have a fitted effect of over 45% in size; luciferase light after 4 h
SARS PLpro yeast: blocks SARS-CoV papain-like protease in a yeast assay; 330,000 compounds, 0.19% hits; S. cerevisiae expressing SARS-CoV PLpro, growth rescue; control for the full effect not named in the record; Potency, µM (highest dose often 32.9 µM), for inactives: top-dose activity, positive = growth rescue; also: 0% is about no effect; nearly all actives have a fitted effect of over 55% in size; growth read by luminescence after 48 h
Cruzain noTriton: cruzain (T. cruzi) inhibition without detergent; P25779; purified cruzain, Z-FR-AMC fluorescence, no detergent; Potency, µM, for the others: max response, negative = inhibition, actives largely listed as inhibitors; 200,000 compounds, 2.3% hits; AID 1476; active = well fitted curve in the direction sought with a large enough effect; inconclusive = small, poorly fitted or top-dose-only effect, or another doubt; inactive = no such curve, though single readings can be large; an effect the other way counts as inactive or inconclusive;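 also: plate controls were enzyme without inhibitor for no effect and buffer without enzyme for full effect; nearly all actives have a fitted effect of over 40% in size; top concentration of the series not given in the record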
Target sequence (P25779 123-467 limits assumed): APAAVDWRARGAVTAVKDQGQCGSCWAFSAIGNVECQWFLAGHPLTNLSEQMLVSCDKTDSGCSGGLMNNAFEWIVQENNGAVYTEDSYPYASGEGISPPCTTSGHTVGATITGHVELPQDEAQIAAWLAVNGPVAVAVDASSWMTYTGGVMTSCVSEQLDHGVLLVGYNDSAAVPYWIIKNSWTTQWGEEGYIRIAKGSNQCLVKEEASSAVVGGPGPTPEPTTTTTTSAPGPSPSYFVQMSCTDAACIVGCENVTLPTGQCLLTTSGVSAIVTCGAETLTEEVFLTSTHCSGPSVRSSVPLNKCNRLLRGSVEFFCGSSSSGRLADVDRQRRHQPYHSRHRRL
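Detergent-free condition (0.00005% Triton X-100) in acetate buffer pH 5.5 with DTT. 1.5 nM enzyme and compound were pre-mixed 15 min, then 2 uM Z-FR-AMC substrate added; reaction progress from fluorescence change between first and third reads (60 s).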
RE007 growth inh: less growth of the S. pombe RE007 Vpr strain. Potency, µM (series often up to 92.2 µM), inactives show at the top dose activity change, negative = less growth. S. pombe RE007 Vpr strain, BacTiter-Glo ATP luminescence, 24 h; control for the full effect not named in the record. 360,000 compounds, 0.21% hits; active = well fitted falling curve with a large enough effect; inconclusive = small, poorly fitted or top-dose-only effect; inactive = no such curve, though single readings can be large or run the other way;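 also: % is scaled to controls: 0 for no effect and ±100 for the full control effect; nearly all actives have a fitted effect of over 50% in size; the assay follows cell death caused by Vpr and the record does not say whether a fall means rescue or toxicity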
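Fission yeast strain RE007, carrying one chromosomally integrated HIV-1 vpr copy, was seeded at OD 0.01 in PMG+AL medium with 23 nL pinned compound. After 24 h at 30 °C and 99% humidity, viability was read by BacTiter-Glo luminescence.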
Cruzain inh Det: blocks cruzain activity in presence of Triton detergent | purified cruzain, Z-FR-AMC fluorescence, 0.01% Triton | AID 1478 | 200,000 compounds, 0.43% hits | Potency, µM, for inactives: max response, negative = inhibition, most hits filed as inhibitors | P25779; active = well fitted curve in the direction sought with a large enough effect; inconclusive = small, poorly fitted or top-dose-only effect, or another doubt; inactive = no such curve, though single readings can be large; an effect the other way counts as inactive or inconclusive;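 also: plate controls were neutral wells for no effect and buffer without enzyme for full effect; nearly all actives have a fitted effect of over 40% in size; top concentration of the series not given in the record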
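15 min RT preincubation of 1.5 nM cruzain with compound, then 2 uM Z-FR-AMC added; kinetic AMC fluorescence, 60 s delta. Triton X-100 0.01%, pH 5.5.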
MARV entry inh: inhibitors of Marburg virus binding or cell entry | Potency, µM (doses to about 37.8 µM), without a hit: at the highest dose activity change, negative = inhibition, actives largely listed as inhibitors | 300,000 compounds, 1.8% hits | Marburg virus pseudotyped entry inhibition, cell reporter; control for the full effect not named in the record; about a third of the inactives were read at about 46 µM; active = well fitted inhibition curve with a large enough effect; inconclusive = small, poorly fitted or top-dose-only effect, or effect the other way; inactive = flat fitted curve, though single readings scatter; tested in HEK293 cells; about a fifth of its hits are not listed in these tables; also: % is scaled to controls: 0 for no effect and ±100 for the full control effect; luciferase read-out
NS1 function inh: inhibitors of influenza NS1 protein function. Potency, µM (doses to about 46.1 µM), for the others: at the highest dose activity, positive = more growth. 270,000 compounds, 0.4% hits. S. cerevisiae slowed by influenza A NS1, growth recovery by OD600; also: actives are rising curves; nearly all actives have a fitted effect of over 50% in size
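In this qHTS, NS1 from influenza A is expressed in budding yeast, where it slows growth. Cells are switched from glucose to 2% galactose medium (pH 6.0, -URA), treated with compound, and growth recovery is read at OD600.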
LASV entry inh: Lassa virus entry inhibition. Lassa virus pseudotype entry inhibition, cell reporter; control for the full effect not named in the record. Potency, µM (highest dose often 37.9 µM), without a hit: at the top dose activity change, negative = inhibition, actives largely listed as inhibitors. 300,000 compounds, 1.2% hits; active means well fitted inhibition curve with a large enough effect; inconclusive means small, poorly fitted or top-dose-only effect, or effect the other way; inactive means flat fitted curve, though single readings scatter; tested in HEK293 cells; also: % is scaled to controls: 0 for no effect and ±100 for the full control effect; nearly all actives have a fitted effect of over 50% in size; luciferase read-out
An asterisk follows results filed as active; ? = inconclusive; . = no result given; & = joins results of further samples; [ ] = another dose, or the depositor's remark. Unless noted, calls follow the shape of the dose curve; as a rule, active means well fitted rising curve with a large enough effect; inconclusive means small, poorly fitted or top-dose-only effect; inactive means no such curve, though single readings can be large or run the other way. Potency is read from the fitted curve at half-maximal effect.

Short keys: A = 2A StopGo; B = SARS PLpro yeast; C = Cruzain noTriton; D = RE007 growth inh; E = Cruzain inh Det; F = MARV entry inh; G = NS1 function inh; H = LASV entry inh
> Cc1cc2cc(CNC(=S)NC3CCCCC3)ccc2[nH]1
  A: 11%; B: 17%; C: .; D: -2%; E: .; F: -14%; G: .; H: ?

> CC(CN1CCCCC1)OC(=O)/C=C/c1ccccc1 (stereo not given)
  A: 0%; B: -2%; C: .; D: 0%; E: .; F: .; G: 10%; H: .

> O=C(NCc1ccco1)c1ccc(-c2csnn2)cc1
  A: 19%; B: 0%; C: .; D: -8%; E: .; F: .; G: 2%; H: .

> O=C(Cc1cccs1)NC1CC(=O)N(c2ccc(Cl)cc2)C1 (stereo not given)
  A: -12%; B: .; C: 6%; D: .; E: -1.0%; F: .; G: .; H: 10%[46.1 µM]

> CCOC(=O)C1CCCN(/C=C2\SC(=S)N(CC)C2=O)C1 (stereo not given)
  A: -11%; B: 0%; C: .; D: 12%; E: .; F: 3%; G: -5%; H: .

> CCc1ccc(NC(=O)CCS(=O)(=O)c2ccc3c(c2)CCN3C(C)=O)cc1
  A: -18%&-1%; B: 2%; C: -1%; D: 7%; E: -0.2%; F: -1%&-1%[46.1 µM]; G: -11%; H: -14%&28%[46.1 µM]

> O=C(NCCc1ccccc1)c1ccccc1NS(=O)(=O)N1CCCC1
  A: 40%[activator]; B: -2%; C: -24%; D: 10%; E: -0.3%; F: 1%; G: -45%; H: 4%

> C#Cc1ccc([C@H]2C=C(C(=O)O)O[C@@H](OCc3ccc(CO)cc3)C2)cc1
  A: -4%; B: -2%; C: .; D: 1%; E: .; F: .; G: 5%; H: .

> CC(C)CCc1noc(CN(C)CC2CCN(Cc3ccccc3)CC2)n1
  A: -23%; B: 0%; C: .; D: -12%; E: .; F: -15%; G: -6%; H: -19%

> CCCC(=O)Nc1cccc(-c2cn3c(C)csc3n2)c1
  A: 4%; B: .; C: 6%; D: .; E: -0.2%; F: .; G: .; H: 16%[46.1 µM]

> Cc1cc(C)c2c(c1)/C(=N/NC(=O)c1ccc(O)cc1)CCC2
  A: -18%; B: -2%; C: .; D: 4%; E: .; F: ?; G: .; H: -19%

> CCOC(=O)c1cc(CC)sc1N
  A: -2%; B: -1%; C: 5%; D: -5%; E: -2.2%; F: .; G: -12%; H: .

> CC(C)c1ccc(N2C(=O)NC(=O)/C(=C/c3cnc(-c4ccccc4)nc3)C2=O)cc1
  A: -10%; B: 8%; C: -4%; D: -2%; E: -7.2%; F: 3%; G: 4%; H: 7%

> Cc1cc(/C=N/n2cnnc2)c(C)n1-c1ccccc1
  A: -3%; B: -13%; C: 1%; D: 14%; E: -1.2%; F: 7%[46.1 µM]; G: -13%; H: -6%

> c1ccc(CSc2ccc(-c3ccccn3)nn2)cc1
  A: 9%; B: ?; C: .; D: -28%; E: .; F: ?; G: .; H: ?

> CC(=O)NC1(c2cccc(F)c2)CCN(CC(=O)NC(C)C)CC1
  A: -18%; B: 1%; C: 2%; D: -13%; E: 5.1%; F: 11%; G: 8%; H: 13%

> Cn1nccc1C(=O)Nc1sc2c(c1C#N)CCCC2
  A: 36%[activator]; B: -4%; C: .; D: -8%; E: .; F: .; G: -22%; H: .

> Cc1ccc2c(c1)NC(=O)C(CC(=O)N(C)Cc1ccccc1)O2 (stereo not given)
  A: -13%; B: 16%; C: -10%; D: -18%; E: -3.3%; F: .; G: -8%; H: .

> c1ccc(OCCN2C3=NCCN3c3ccccc32)cc1
  A: -25%; B: 3%; C: -3%; D: 11%; E: 1.6%; F: -23%; G: 3%; H: -9%

> CC1CCN(CCCCOc2cccc(C(C)C)c2)CC1
  A: 0%; B: -1%; C: .; D: 5%; E: .; F: 0%; G: -7%; H: .

Some entries already given, showing only MARV entry inh, Cruzain inh Det and 2A StopGo:
structure,MARV entry inh,Cruzain inh Det,2A StopGo
CC(C)c1ccc(N2C(=O)NC(=O)/C(=C/c3cnc(-c4ccccc4)nc3)C2=O)cc1,3%,-7.2%,-10%
Cc1cc(/C=N/n2cnnc2)c(C)n1-c1ccccc1,7%[46.1 µM],-1.2%,-3%

The list goes on.
Short keys: A = 2A StopGo; B = SARS PLpro yeast; C = Cruzain noTriton; D = RE007 growth inh; E = Cruzain inh Det; F = MARV entry inh; G = NS1 function inh; H = LASV entry inh
> CC(C)Cc1cc(C(=O)N2CCCC(CCC(=O)N(C)CCc3ccccn3)C2)no1 (stereo not given)
  A: -11%; B: 0%; C: .; D: 8%; E: .; F: -11%; G: -5%; H: ?

> COc1ccc(C(=O)Cc2nnc(C)s2)cc1
  A: 19%; B: 17%; C: -6%; D: -5%; E: -5.8%; F: 21%; G: 11%; H: 10%

> O=C(Nc1ccccc1)NC1CCN(Cc2c(F)cccc2Cl)CC1
  A: -25%; B: -2%; C: .; D: -7%; E: .; F: ?; G: -1%; H: ?

> O=C(CN1CCN(Cc2ccc(Cl)cc2)CC1)N/N=C/C=C/c1ccccc1[N+](=O)[O-]
  A: ?; B: 14%; C: -7%; D: -2%; E: -11%; F: ?; G: -18%; H: ?

> CC1(C)NS(=O)(=O)Oc2ccccc21
  A: -6%; B: 7%; C: .; D: 12%; E: .; F: .; G: 2%; H: .

> Cc1ccc(S(=O)(=O)N2CCN(C(=O)c3ccc(OCc4c(C)noc4C)cc3)CC2)cc1
  A: ?; B: 11%; C: ?; D: -5%; E: -4.1%; F: -11%[46.1 µM]; G: -12%; H: 6%

> O=C(Nc1ccc2ccccc2c1)c1ccccc1F
  A: 4%; B: 9%; C: .; D: -12%; E: .; F: .; G: -9%; H: .

> COC(=O)c1c(Sc2ccccc2)c2ccccc2n1C
  A: 10%; B: -3%; C: .; D: -1%; E: .; F: .; G: 1%; H: .

> CCn1c(SCC(=O)Nc2c(C)n(C)n(-c3ccccc3)c2=O)nc2c1c(=O)n(C)c(=O)n2C
  A: -13%; B: 0%; C: .; D: 22%; E: .; F: 10%[46.1 µM]; G: 3%; H: 7%[46.1 µM]

> Cc1ccc(C(=O)NCCNC(=O)c2ccc(C)nc2)cc1
  A: 0%; B: 4%; C: .; D: -2%; E: .; F: 4%[46.1 µM]; G: 6%; H: .

> COc1cccc(NC(=O)CSC2=Nc3ccccc3C3=NC(CCC(=O)NCCc4ccccc4)C(=O)N23)c1 (stereo not given)
  A: ?; B: .; C: ?; D: .; E: -1.8%; F: .; G: .; H: -10%[46.1 µM]

> CCc1ccc(C(C(=O)NCc2ccc(OC)cc2)N(CCOC)C(=O)Cc2cccs2)cc1 (stereo not given)
  A: .; B: -16%; C: -5%; D: 10%; E: -4.1%; F: ?; G: -43%; H: ?

> O=C(CCN1C(=O)c2ccccc2C1=O)Nc1cccc(S(=O)(=O)NC2=NCCC2)c1
  A: 3%; B: -1%; C: .; D: 8%; E: .; F: 6%[46.1 µM]; G: .; H: 10%

> CC(C)(C)C(=O)N1CCn2c1nc1ccccc12
  A: 5%; B: 0%; C: .; D: -11%; E: .; F: 3%[46.1 µM]; G: -1%; H: 5%

> COc1ccc(OCC(=O)O/N=C(\N)Cc2ccc(Cl)cc2Cl)cc1
  A: -22%; B: -11%; C: -2%; D: -15%; E: 1.1%; F: ?; G: -12%; H: -8%

> CC(=O)c1sc(NC(=O)c2ccc(COc3ccccc3Cl)o2)nc1C
  A: -9%; B: -3%; C: .; D: 9%; E: .; F: ?; G: -5%; H: 9%[46.1 µM]

> Cn1cc(Cl)c(C(=O)OCC(=O)Nc2nc(-c3ccc(Br)cc3)cs2)n1
  A: -18%; B: -19%; C: 32µM*; D: -17%; E: -5.7%; F: ?; G: 0%; H: -29%

> COc1ccccc1C(=O)NC(=O)COC(=O)Cc1ccccc1[N+](=O)[O-]
  A: -3%; B: -3%; C: .; D: 2%; E: .; F: 7%; G: .; H: 11%

> COc1cc(/C=C/C(=O)OCC(=O)NC2CCS(=O)(=O)C2)ccc1O (stereo not given)
  A: -13%; B: 9%; C: -2%; D: .; E: -6.3%; F: 18%; G: 9%; H: 0%

> c1ccc2c(c1)OCC(c1csc3ncnc(N4CCCC4)c13)O2 (stereo not given)
  A: ?; B: -6%; C: 1%; D: -3%; E: -3.1%; F: ?; G: -3%; H: -15%

> CCOc1ccc(CC(=O)NNC(=O)/C=C/C(=O)O)cc1
  A: -4%; B: -2%; C: .; D: 1%; E: .; F: 3%; G: -4%; H: -4%

> COCCCNC(=O)c1ccc(Cn2c(=O)c3ccccc3n(Cc3c(C)cc(C)cc3C)c2=O)cc1
  A: 14%; B: .; C: -4%; D: .; E: -2.3%; F: -12%[46.1 µM]; G: .; H: 6%[46.1 µM]

> Nc1ccc2c(c1Br)Cc1ccccc1-2
  A: 58%[activator]; B: .; C: .; D: -14%; E: .; F: .; G: .; H: 19%

> Cc1ccc(Cn2c(=O)n(Cc3ccc(Cl)cc3)c(=O)c3cccnc32)cc1
  A: -17%; B: .; C: 5%; D: .; E: -0.2%; F: -11%[46.1 µM]; G: .; H: .

> O=c1[nH]c(=O)n(C2CCCO2)cc1F (stereo not given)
  A: -24%; B: 5%; C: 7%&-4%; D: -3%; E: 2.5%&1.9%; F: -12%; G: -8%; H: -25%

> CC(C)(C)c1ccc(OCC(=O)Nc2ccc(S(=O)(=O)Nc3ncccn3)cc2)cc1
  A: -9%; B: .; C: -2%; D: .; E: 0.8%; F: .; G: .; H: -34%[46.1 µM]

> COc1ccc(NC(=O)N2CCCC2C(=O)Nc2ccc(C)c(Cl)c2)cc1 (stereo not given)
  A: 2%; B: -5%; C: 1%; D: 17%; E: 0.5%; F: 2%; G: 6%; H: 2%

> Cc1cc(NC(=O)Nc2cccc(C(F)(F)F)c2)n(C)n1
  A: 31%[activator]; B: 2%; C: .; D: -9%; E: .; F: 16%[46.1 µM]; G: .; H: 0%

Screening data from PubChem BioAssay.
